Bfl-1 A1 inh = inhibitors of the anti-apoptotic protein A1, read as caspase activation; MEF A1-2A-BIM cells, Caspase-Glo 3/7 luminescence, 3 h; percent of clofoctol response, vehicle zero; caspase activation, % (test concentration not listed); 330,000 tested, 0.066% active;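 active = over half of replicate activation scores above 10%, or exactly half above 10 with the replicate mean above 10; inconclusive = replicate mean below 10 yet half the replicates above 10; inactive = over half of replicates below 10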;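 also: wells of about 30 µL received 50 nL stock; many hits fall short of the cut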
LANA-H2A inh = blocks KSHV LANA binding to histone H2A/H2B. Q9QR71. cell-free LANA-H2A/H2B peptide, fluorescence polarization. inhibition, % (test concentration not listed). 320,000 tested, 0.6% active; in the data active = inhibition mostly above about 10%, no sharp cut-off; inactive = mostly below about 6.7%;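 also: stock transfer was 7.5 nL into about 10 µL; 0% = median of vehicle wells and 100% = median of positive control wells; one replicate is shown; the record names a cut of 25% in any replicate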
RanGTP-Imp inh = disruptors of Ran-importin-beta complex formation – biochemical, FRET, CFP-Ran, YFP-importin-beta, homogeneous, primary screen; 300,000 tested, 1.1% active; cell-free CFP-Ran/YFP-importin-beta FRET ratio; inhibition, % (no concentration beside the values);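 active = most replicates above 15%; inconclusive = exactly half above 15%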;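 also: 0% = DMSO wells and 100% = Ran loaded with GDP instead of GTP; wells of about 40 µL received 100 nL stock; the first replicate is given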
Beta cell apopt = beta cell apoptosis inhibition; AID 435005; protection from apoptosis, % (concentration not given with the values); INS-1E cytokine-induced death, ATP luminescence, 48 h; percent of positive-control rescue, neutral wells zero; 300,000 tested, 0.8% active;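 active = all replicates at 75% or more, or half of them and the mean; inconclusive = half reach 75% but not the mean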;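 also: 0% = cytokine-treated negative control wells and 100% = positive control rescue; higher means more ATP so stronger rescue from cytokine killing; wells of about 40 µL received 100 nL stock; the first replicate is given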
T cruzi inh = blocks replication of Trypanosoma cruzi; T. cruzi beta-gal in NIH3T3, luminescence, 90 h; inhibition, % (concentration not given with the values); 300,000 tested, 1.4% active; AID 1885;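 active = mean inhibition across valid replicates above about 55%, limit read from the data; inconclusive = mean below that limit but half or more replicates reach it; inactive = mean below it, under half of replicates reach it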;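 also: signal also drops with host cell toxicity which is not excluded here; 0% = plate median of DMSO wells and 100% = zero luminescence signal; higher percent means less beta-gal luminescence so fewer parasites; stock transfer was 50 nL into about 50 µL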
MLL AF4-AF9 inh = blocks AF4 peptide binding to human AF9 | AlphaScreen, biotin-AF4 peptide binding to FLAG-AF9 | inhibition, % at 10 µM | 350,000 tested, 0.47% active;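 active = every replicate reaching a set inhibition limit, whatever the replicate mean, cut at about 25% in these data; inconclusive = mean inhibition reaches that limit but some replicates miss it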;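 also: 0% = plate neutral control median and 100% = total signal loss; the record names both 10 and 1 µM as test concentration; the first replicate is given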
Target sequence (P42568 whole entry, looked up): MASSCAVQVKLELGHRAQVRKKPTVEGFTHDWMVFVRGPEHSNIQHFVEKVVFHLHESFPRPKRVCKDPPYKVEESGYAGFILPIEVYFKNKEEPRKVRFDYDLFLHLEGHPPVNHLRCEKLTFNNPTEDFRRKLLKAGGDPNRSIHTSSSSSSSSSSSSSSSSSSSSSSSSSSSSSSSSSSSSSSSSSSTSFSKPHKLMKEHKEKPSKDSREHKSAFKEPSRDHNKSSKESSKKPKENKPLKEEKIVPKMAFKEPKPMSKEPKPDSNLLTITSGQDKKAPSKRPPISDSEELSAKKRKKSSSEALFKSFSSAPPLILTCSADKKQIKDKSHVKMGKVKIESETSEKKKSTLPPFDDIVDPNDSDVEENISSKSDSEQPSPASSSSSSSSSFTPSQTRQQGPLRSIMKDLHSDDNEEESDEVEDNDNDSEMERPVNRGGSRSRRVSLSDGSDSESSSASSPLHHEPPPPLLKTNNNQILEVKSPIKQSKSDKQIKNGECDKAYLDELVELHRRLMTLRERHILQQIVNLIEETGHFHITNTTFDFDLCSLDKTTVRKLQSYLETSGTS
Calb FLC = C. albicans growth modulation with fluconazole. growth inhibition, % (no concentration beside the values). 300,000 tested, 0.57% active. AID 1979. C. albicans CaCi-2 (fluconazole-resistant clinical isolate) + fluconazole, Alamar Blue growth, 48 h;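 active = most replicates above 75%; inconclusive = exactly half above 75%; inactive = most below 75%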;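 also: all wells also contain fluconazole at 8 µg/ml as a sub-toxic cotreatment; 0% = median of DMSO wells and 100% = median of geldanamycin control wells; wells of about 8 µL received 7.5 nL stock; the first replicate is given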
Vif A3G = inhibitors of Vif binding to APOBEC3G peptide, primary screen, biochemical, TR-FRET, GST-Vif 1-94, biotin-A3G peptide, dose response retest (AID 1117319). TR-FRET GST-Vif / biotin-A3G peptide binding; higher % means a stronger effect; test concentration not given here; strong numbers were not always called active. inhibition, %; hits with a dose series show IC50 in µM. 260,000 tested, 0.57% active;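 active = above the screen mean plus three standard deviations and confirmed in dose response; inconclusive = results disagree or hit not tested in dose response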;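 also: Vif residues 1-94 fused to GST binding biotinylated APOBEC3G peptide 110-148; 0% = full assay without inhibitor and 100% = GST in place of GST-Vif; retest series ran down from 100 µM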
The depositor's hits bear a star; ? = inconclusive; / = no result given. Compounds were not picked by outcome; about 4.3% have a hit in one of these screens.

entry	Structure	Beta cell apopt	Vif A3G	Bfl-1 A1 inh	T cruzi inh	MLL AF4-AF9 inh	RanGTP-Imp inh	Calb FLC	LANA-H2A inh
1	O=S(=O)(NC1CCCCC1)c1cccc(-c2nnc(-c3ccccc3)o2)c1	4	5%	-0.3	12	/	3.0	12	-4.4
2	CCSc1nc2ccccc2n1CC(=O)OC	-5	-4%	1.2	-2	/	6.1	1	-2.6
3	COC(=O)CN1C(=O)C2(C(C#N)=C(N)Oc3n[nH]c(-c4cccs4)c32)c2ccccc21 (stereo not given)	-5	?	0.8	-4	/	0.7	-19	-0.6
4	CC1(NC(=S)Nc2ccccc2)CCS(=O)(=O)C1 (stereo not given)	-3	-11%	0.0	-12	-2.6	2.6	13	-1.5
5	Cc1cccc(C2NC(=O)c3ccccc3O2)c1 (stereo not given)	-4	/	0.0	-10	-7.9	5.0	3	3.8
6	Cc1ccc(S(=O)(=O)Nc2ccccc2-c2nc3ccccc3[nH]c2=O)cc1	3	/	-0.1	/	-0.7	/	/	-1.8
7	COc1cc(C(=O)NCCOc2cccc(C)c2)c(Br)c(OC)c1OC	3	1%	-0.2	13	/	-0.3	-1	-2.2
8	Cc1ccc(C2=NC3(CCCCCC3)NC2=S)cc1	0	/	0.8	-17	5.3	2.4	0	1.0
9	COC(=O)c1ccc(NC(=O)CSc2nncc3ccc(OC)c(OC)c23)cc1	-11	/	-0.1	-17	/	-1.8	-2	-5.7
10	O=C(N/N=C/c1ccccn1)c1cc(-c2ccc(Br)cc2)nc2ccccc12	19	-10%	-1.5	50	-3.9	0.7	-7	-4.5
11	CCOc1ccc(NC(=O)Nc2nnc(CC)s2)cc1	-4	-6%	0.3	-7	/	1.2	-12	2.0
12	COc1ccccc1CC(=O)Nc1cccc(F)c1	-4	-4%	0.9	-1	-1.0	-0.3	-21	-1.8
13	O=C(CCN1C(=O)/C(=C/c2cccs2)SC1=S)N1CCCCC1	-8	/	-0.2	3	-2.3	4.3	5	24*
14	O=c1[nH]c2ccccc2c2ccccc12	7	-2%	0.5	-10	/	-0.7	3	-1.1
15	Cc1cc(N2CCN(Cc3ccccc3)CC2)n2nc(C)c(-c3ccccc3)c2n1	1	-2%	0.3	45	/	2.2	1	7.9
16	Cc1cc(C(=O)NNC(=O)Nc2ccccc2)no1	-10	-3%	1.3	-3	0.1	-2.5	-5	-1.8
17	CC1CCCC(NC(=O)C2N(CCCN3CCCC3)C(=O)C3C(C(=O)Nc4cccc(Cl)c4)C4C=CC32O4)C1C (stereo not given)	-8	/	0.4	-3	-1.6	4.0	-7	6.1
18	Cc1ccc(-c2ccc(CCC(=O)O)n2NC(N)=S)cc1	4	12µM*	-1.2	-3	/	4.7	19	0.8
19	Cc1cc(N2Cc3ccccc3C2)ccc1C=O	6	/	-5.6	2	-1.8	0.8	2	-0.1
20	Cc1ccc(NC(=O)CCC(=O)NNS(=O)(=O)c2ccccc2)cc1C	-8	5%	-0.2	-24	/	-3.2	2	-1.4
21	CCCOc1ccc(/C(O)=C2\C(=O)C(=O)N(CCCOC)C23C(=O)N(C)c2ccccc23)cc1 (stereo not given)	2	32%	0.7	4	/	-1.4	-4	-0.7
22	CCOC(=O)c1[nH]c2c(c1-c1ccccc1)C(=O)CC(c1ccc(OCC)cc1)C2 (stereo not given)	4	/	1.9	-2	-4.1	-2.2	-5	-3.6
23	CN(CCO)Cc1csc2ccc(Br)cc12	-5	2%	0.6	10	/	2.3	-4	-2.7
24	CCOc1ccccc1N(CC(=O)Nc1ccccc1)S(=O)(=O)c1ccccc1	0	/	0.6	1	-0.6	5.1	1	0.6
25	COc1ccc(C(=O)O)c(OC)n1	1	14%	0.3	-7	-2.7	1.9	2	1.4
26	Cc1cccc(C)c1NC(=O)NC1(C(=O)NCCCN2CCOCC2)CCCCC1	-7	-4%	0.0	-13	/	-1.8	0	-1.3
27	O=C(O)Cc1ccc(NS(=O)(=O)c2ccc3ccccc3c2)cc1	-11	-9%	0.0	-3	2.3	-4.3	3	10
28	COc1ccc(OC)c(/C=N/n2c(COc3ccccc3)n[nH]c2=S)c1	7	-10%	1.1	-8	-0.5	?	-19	2.6
29	COc1ccc(S(=O)(=O)N2CCOCC2)cc1NC(=O)Cc1ccc(Cl)c(Cl)c1	1	-5%	0.4	6	3.5	6.6	-2	-1.9
30	CC1(C)c2[nH]c3ccccc3c2C[C@H]2C(=O)N(CCCCCO)CC(=O)N21	1	4%	2.1	8	-1.9	2.5	-1	-3.7
31	COc1ccc(C)cc1S(=O)(=O)N(CC(=O)N1CCCC1)c1ccccc1	-3	1%	0.0	-21	/	-0.9	-15	1.6
32	O=C(NC1CSC/C1=N\O)c1ccccc1 (stereo not given)	4	0%	-0.8	0	/	-1.0	-11	2.7
33	O=C(N[C@H]1CCC(=O)N(CCSc2ccc(Br)cc2)CC1)OCc1ccccc1	7	/	0.6	/	-0.8	/	/	-0.6
34	CCOC(=O)c1c(-c2cccs2)csc1NC(=O)CSc1ncn[nH]1	3	0%	-0.5	-7	3.9	5.8	43	-3.1
35	CCCCCCCC(=O)NN=C1CCN(Cc2ccccc2)CC1	3	-1%	-0.7	-5	/	-1.8	-1	-2.0
36	CN(Cc1ccccc1O)CC1CCCN(CCc2ccc(Cl)cc2)C1 (stereo not given)	/	2%	0.0	45	3.0	-0.3	-1	2.5

A draw from above in order of number of heavy atoms, rising:
entry	Structure	Beta cell apopt	Vif A3G	Bfl-1 A1 inh	T cruzi inh	MLL AF4-AF9 inh	RanGTP-Imp inh	Calb FLC	LANA-H2A inh
25	COc1ccc(C(=O)O)c(OC)n1	1	14%	0.3	-7	-2.7	1.9	2	1.4
32	O=C(NC1CSC/C1=N\O)c1ccccc1 (stereo not given)	4	0%	-0.8	0	/	-1.0	-11	2.7
35	CCCCCCCC(=O)NN=C1CCN(Cc2ccccc2)CC1	3	-1%	-0.7	-5	/	-1.8	-1	-2.0
34	CCOC(=O)c1c(-c2cccs2)csc1NC(=O)CSc1ncn[nH]1	3	0%	-0.5	-7	3.9	5.8	43	-3.1
28	COc1ccc(OC)c(/C=N/n2c(COc3ccccc3)n[nH]c2=S)c1	7	-10%	1.1	-8	-0.5	?	-19	2.6
30	CC1(C)c2[nH]c3ccccc3c2C[C@H]2C(=O)N(CCCCCO)CC(=O)N21	1	4%	2.1	8	-1.9	2.5	-1	-3.7
33	O=C(N[C@H]1CCC(=O)N(CCSc2ccc(Br)cc2)CC1)OCc1ccccc1	7	/	0.6	/	-0.8	/	/	-0.6
26	Cc1cccc(C)c1NC(=O)NC1(C(=O)NCCCN2CCOCC2)CCCCC1	-7	-4%	0.0	-13	/	-1.8	0	-1.3

(list continues)
entry	Structure	Beta cell apopt	Vif A3G	Bfl-1 A1 inh	T cruzi inh	MLL AF4-AF9 inh	RanGTP-Imp inh	Calb FLC	LANA-H2A inh
37	Cc1cc(C(=O)OCC(=O)NCCc2ccccc2)c(C)o1	-3	3%	-0.2	-3	/	1.0	-5	-4.3
38	O=C(c1cc(-c2ccc3c(c2)OCO3)on1)N1CCOCC1	10	5%	-8.7	-1	/	?	2	4.0
39	C=CCn1c(C)cc(C(=O)COC(=O)C2CC(=O)N(CCc3ccc(OC)c(OC)c3)C2)c1C (stereo not given)	3	/	0.8	6	-5.7	4.2	-2	/
40	CC(=O)c1c(O)cc(=O)n(-c2ccccc2)c1-c1cccc2ccccc12	-6	6%	0.3	-17	/	2.0	-7	-3.6
41	CC(=O)Nc1ccc(S(=O)(=O)NC2(C(F)(F)F)NC(=O)N(C3CCCCC3)C2=O)cc1 (stereo not given)	-5	-2%	-0.1	-3	/	-1.4	-7	-2.1
42	Cc1c(Cl)cccc1-c1ccc(C(=O)N2CCN(c3ccc([N+](=O)[O-])cc3)CC2)o1	5	1%	0.2	19	/	-0.9	-19	-0.3
43	CC(=O)OC(C(=O)NC1CCCCC1)c1ccc(C)cc1 (stereo not given)	-6	0%	1.1	-5	/	-0.8	-4	-1.6
44	COc1ccc(C(c2nnnn2Cc2ccccc2)N2CCN(c3nc4ccccc4s3)CC2)cc1OC (stereo not given)	/	-2%	1.0	39	/	-0.2	6	2.1
45	CC(CC(=O)Nc1cccc(Cl)c1)c1ccccc1 (stereo not given)	1	-6%	0.4	16	/	5.0	0	-6.1
46	COc1ccccc1-n1cnc2c(c1=O)c1nc3ccccc3nc1n2-c1ccc(C)cc1	1	-13%	0.7	8	0.9	-3.4	-20	1.0
47	O=C(Cn1c(=S)[nH]c2ncccc2c1=O)NCCc1ccccc1	0	-1%	0.2	-7	-5.9	3.7	0	2.2
48	CCc1cc(C(=O)N(C)CC(=O)N(CC(C)C)c2c(N)n(CC(C)C)c(=O)[nH]c2=O)sc1C	-1	/	-0.8	3	/	-0.3	-8	5.2
49	COc1cc(Nc2nc3ccccc3n3nnnc23)cc(OC)c1OC	0	1%	0.2	-6	-3.0	9.0	6	4.1
50	O=C(O)CC(CC(=O)Nc1ccc(N2CCOCC2)cc1)c1ccccc1 (stereo not given)	-3	4%	0.9	-6	-0.2	2.2	-23	-2.4
51	Cc1ccc(S(=O)(=O)NCc2ccc(C(=O)N3CCN(Cc4ccccc4)CC3)cc2)cc1	/	2%	-0.1	15	/	-0.9	5	-0.7
52	O=C(OCCN1CCOCC1)c1ccccc1Cl	-7	/	-0.2	-9	1.7	?	-7	3.2
53	CC1CCCN(C(=O)c2ccc(CNc3c(N4CCCCC4)c(=O)c3=O)cc2)C1 (stereo not given)	0	4%	0.5	-9	-15	-0.8	0	4.9
54	CCN(CC)C(=O)C1CCCN(Cc2ccc3ccccc3c2)C1 (stereo not given)	-1	/	0.0	46	-1.3	1.1	-5	-1.9
55	O=C(Nc1nc2c(s1)CCCC2)C1COc2ccccc2O1 (stereo not given)	3	15%	-5.8	12	0.9	0.6	-17	-3.3
56	CCc1ccccc1NC(=O)c1cc(S(=O)(=O)N2CCCC2)c[nH]1	-3	/	0.2	-6	1.0	-2.6	-10	-5.2
57	COc1ccc(NC(=O)C2CCN(S(=O)(=O)c3ccc4[nH]c(=O)oc4c3)CC2)c(OC)c1	4	/	-0.7	6	/	2.4	19	-0.2
